Source: PubChem (ICCB-Longwood Screening Facility, Harvard Medical School)
Anaer choline gr – blocks anaerobic gram-negative growth on choline; Gram-negative bacterium anaerobic choline minimal medium, absorbance growth; active compounds read low; many inactives read as strong as hits in the columns shown; calls only; 55,000 compounds, 0.2% hits;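 active = growth z-score on choline under -2 at 7 or 20 h with little or no fall on glycerol, limits in tiers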;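 also: stock transfer was 300 nL into about 50 µL; the organism is E. coli; final concentration not given here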
Anaer choline gr early – second read-out of Anaer choline gr, no call of its own (marks repeat the call); z-score; measured here: choline growth z-score, timepoint 1;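 score of optical density at 7 h as mean of two plates; lower means less growth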
The depositor's hits bear a star; i = inactive; & = joins results of further samples. These rows are one share of the data. The share of hits here may be higher or lower than overall.

Fields: Anaer choline gr early | Anaer choline gr
> Cc1c(C(=O)N(Cc2ccc(N(C)C)cc2)CC2CCCO2)oc2ccc(Cl)cc12 (stereo not given)
    1.6 | i
> O=C(CC1CCCC1)NC1CCCN(c2cc(N3CCCC3)ncn2)C1 (stereo not given)
    0.73 | i
> Cc1nnc2ccc(C(=O)Nc3ccccc3F)cn12
    -0.8 | i
> O=C1CN(Cc2ccccc2Cl)S(=O)(=O)c2ccccc2N1Cc1ccc(Cl)cc1
    0.5 | i
> O=C(CC1CCN(C(=O)C2CCCCC2)CC1)NCCCN1CCC(N2CCCCC2)CC1
    -0.04 | i
> COc1ccc(-c2c(C)nn3c4c(cnc23)C(=O)CCC4)cc1
    0.03 | i
> CCc1ccc(S(=O)(=O)c2cnc(N3CCN(c4cc(C)ccc4C)CC3)nc2N)cc1
    0.85 | i
> CC1(C)Cc2nc3c(cc2CO1)c(=O)n(-c1ccccc1)c(=O)n3Cc1ccc(F)cc1
    -0.67 | i
> Cc1nn(C)c(C)c1CCNC(=O)Nc1ccc2c(c1)OCCO2
    0.59 | i
> Cc1nc2c(nc(SCc3nc(-c4cccc(Br)c4)oc3C)n2C)c(=O)[nH]1
    0.3 | i
> Cc1c(C(=O)NC2CCC(C)CC2)sc2nc3n(c(=O)c12)CCC3 (stereo not given)
    1.1 | i
> O=C(c1ccc2ccnc(N3CCN(c4ccccc4F)CC3)c2c1)N1CCN(c2ccccn2)CC1
    1.1 | i
> COc1ccc(N2CCN(c3nccc4ccc(C(=O)N5CCCC5)cc34)CC2)cc1
    -1.4 | i
> CCCCCCCCOc1ccccc1C(=O)Nc1ccc(C(=O)OCC[N+](C)(CC)CC)cc1
    -3.6 | i
> CO[C@@]1(NC(=O)CSCC#N)C(=O)N2C(C(=O)O)=C(CSc3nnnn3C)CS[C@@H]21
    -2.7&-2.8 | i
> CC(C)c1nc(CN(C)C(=O)N[C@H](C(=O)N[C@@H](Cc2ccccc2)C[C@H](O)[C@H](Cc2ccccc2)NC(=O)OCc2cncs2)C(C)C)cs1
    0.55 | i
> CC(=O)Nc1ccc(-c2cc(C(=O)N3CCCC3)c3cc(C)ccc3n2)cc1
    -0.67 | i
> COc1ccc(Cl)cc1NC(=O)N1CCCN(c2ccc(=O)n(-c3ccc(F)cc3)n2)CC1
    0.72 | i
> FC(F)(F)c1cccc(-c2ccc(CNC3CC3)o2)c1
    -0.72 | i
> NS(=O)(=O)c1ccc(CCNC(=O)c2ccc(-n3nnc4cccnc43)cc2)cc1
    0.24 | i
> CN1C(=O)CSc2cnn(CC(=O)NCCC3=CCCCC3)c(=O)c21
    -0.98 | i
> Cc1c(N2CCN(C(=O)CC(C)C)CC2)c(=O)n(C)c(=O)n1-c1ccccc1
    -0.14 | i
> Cc1cccc2cc(-c3noc(-c4ccccc4)n3)c(N(C)C)nc12
    -0.67 | i
> Cc1ccc(-c2nc(C(=O)N3CCCC3)cs2)n1C
    -2.2 | i
> CNC(=O)N1CCCC(c2cccc(C(=O)N3CCCC3)c2)C1 (stereo not given)
    0.49 | i
> CC1CC(C)CN(C(=O)C2CCN(S(=O)(=O)c3ccc4c(c3)C(C)(C)C(=O)N4C)CC2)C1 (stereo not given)
    -0.78 | i
> Cc1cc(C(=O)NCCN2CCOCC2)no1
    -1.1 | i
> CC(C)S(=O)(=O)N1CCCN(C(=O)C(C)(C)C)CC1
    1.3 | i
> O=C(Cn1nc2c3ccccc3ncn2c1=O)Nc1cccc(Cl)c1
    -0.4 | i
> CCn1nc(C)c2[nH]c(=S)n(Cc3ccccc3Cl)c(=O)c21
    0.24 | i
> O=S(=O)(c1cc(-c2noc(C3CC3)n2)cs1)N1CCN(c2ccccc2)CC1
    0.08 | i
> Cc1nn(-c2ccc3nnc(C)n3n2)c2c1C(c1cccc(F)c1F)CC(=O)N2 (stereo not given)
    0.07 | i
> O=C(COc1ccc(-c2cnc3ccccc3n2)cc1)NC1CCCCC1
    0.15 | i
> COC(=O)c1ccc(C(=O)OC)c(NC(=O)c2nn(-c3ccccc3)c(=O)cc2OC)c1
    0.15 | i
> O=C1CN(Cc2ccccc2)S(=O)(=O)c2ccccc2N1Cc1ccccc1F
    -0.68 | i
> O=C1CC(c2cccc(F)c2)c2cnn(-c3nc4ccccc4s3)c2N1 (stereo not given)
    0.1 | i
> CCOc1ccc(NC(=O)N2CCC(N3CCN(Cc4ccc(F)cc4)C3=O)CC2)cc1
    -1.3 | i
> CCOc1nc2c(c(C)nn2-c2ccc(C)cc2)c(C)c1CCC(=O)Nc1ccc(OC)c(OC)c1
    0.04 | i
> Clc1ccc2nnc(-c3cccc(Br)c3)n2n1
    0.09 | i
> Cc1cc(C)cc(-n2ccn3c(CCC(=O)NC4CCN(Cc5ccccc5)CC4)nnc3c2=O)c1
    -0.54 | i
> Cc1nn(-c2nc3ccccc3[nH]2)c2c1C(c1ccc(Cl)cc1)CC(=O)N2 (stereo not given)
    -0.19 | i
> O=C(CCCN1C(=O)c2ccccc2Sc2ncccc21)NCc1ccccc1Cl
    0.25 | i
> CC(C)Oc1ccccc1C1CC(=O)Nc2c1cnn2-c1nc2ccccc2s1 (stereo not given)
    2.8 | i
> CN(C)S(=O)(=O)c1ccc(-c2noc(C(=O)NCc3ccc4c(c3)OCO4)n2)cc1
    0.98 | i
> CN(C)c1ccc(CNc2ccc3[nH]c(=O)[nH]c3c2)cc1
    -0.22 | i
> CC(=O)Nc1ccc(C(=O)N2CCC(C)CC2)o1
    1.6 | i
> COc1ccc(OC)c(CNC(=O)c2ccc3noc(-c4ccc(C)cc4)c3c2)c1
    -0.86 | i
> CCOC(=O)C1CCC(CNC(=O)N2CCCC2c2cc(C(C)C)on2)CC1 (stereo not given)
    -0.33 | i
> O=C(Nc1ccccc1)Nc1nc(CC(=O)N2CCCCC2)cs1
    -1.3 | i
> COc1cccc2c1[C@@H]1CN(CCCCn3c(=O)[nH]c4c(sc5ncc(-c6ccccc6)nc54)c3=O)C[C@@H]1CO2
    0.88 | i
> COCCCNC(=O)Cc1ccc(-n2c(=O)c3ccccc3n(CC(=O)NC3CCCCC3)c2=O)cc1
    -0.55 | i
> O=S(=O)(NC1CCCC1)c1ccc(-c2cc(C(F)(F)F)on2)o1
    -0.24 | i
> Cc1nn2c(S(=O)(=O)N3CCCCCC3)c(C)nc2s1
    -0.16 | i
> c1ccc2c(Cc3c[nH]c4ccccc34)c[nH]c2c1
    -0.77 | i
> CCOC(=O)CC1=CC(=O)N(CC(=O)Nc2ccc3c(c2)OCCO3)c2cc(C)c(C)cc2N1
    -0.23 | i
> COc1ccc2[nH]cc(CCNC(=O)Nc3ccccc3)c2c1
    0.28 | i
> CCCNC(=O)CN1c2ccccc2NC2=C(C(=O)CC(C)(C)C2)C1c1ccc(C)cc1 (stereo not given)
    0.55 | i
> Cc1ccc(-c2noc(-c3cn(CC(=O)Nc4ccc(C)cc4F)c4nc(C)ccc4c3=O)n2)cc1
    -0.78 | i
> COc1cccc(Cn2nnc(C(=O)O)c2C(=O)O)c1
    0.88 | i
> Cc1nn(-c2cccc(F)c2)c2sc(C(=O)Oc3cccnc3)cc12
    0.44 | i

Entries of single compounds from above.
COC(=O)c1ccc(C(=O)OC)c(NC(=O)c2nn(-c3ccccc3)c(=O)cc2OC)c1 is listed as Anaer choline gr early: 0.15; Anaer choline gr: i
COCCCNC(=O)Cc1ccc(-n2c(=O)c3ccccc3n(CC(=O)NC3CCCCC3)c2=O)cc1 is listed as Anaer choline gr early: -0.55; Anaer choline gr: i

(list continues)
Fields: Anaer choline gr early | Anaer choline gr
> CCCN1CCN(Cc2nc3nc(C)cc(N4CCC(C)CC4)n3n2)CC1
    1.6 | i
> COc1ccc(-c2noc(CSc3ccc(-c4cccc(Br)c4)nn3)n2)cc1OC
    0.08 | i
> Cc1cc(C2CCCN2Cc2cc(Cl)ccc2O)on1 (stereo not given)
    -1.6 | i
> CC(=O)[C@]1(O)Cc2c(O)c3c(c(O)c2[C@@H](O[C@H]2C[C@H](N)[C@H](O)[C@H](C)O2)C1)C(=O)c1ccccc1C3=O
    -0.08&-3 | i
> COC(=O)c1cn(CC(=O)Nc2cc(C)ccc2C)c2nc(C)ccc2c1=O
    0.2 | i
> CCC(C)NC(=O)CN1C(=O)CCCc2ccccc21 (stereo not given)
    -0.84 | i
> Cc1cc(C)cc(NC(=O)CN2C(=O)C3CCCC3=Nc3cc(C)c(C)cc32)c1 (stereo not given)
    -0.68 | i
> CCCCC(CC)COC(=O)CC(C(=O)OCC(CC)CCCC)S(=O)(=O)O (stereo not given)
    -0.36 | i
> CCCCCCCNC(=O)C1CCN(c2cc(-c3ccc(F)cc3)ncn2)CC1
    0.16 | i
> COc1ccc(NC(=O)c2cccc(-c3cc(Oc4ccccc4OC)ncn3)c2)cc1Cl
    1.5 | i
> Fc1ccccc1-c1ccc(CNCC2CCNCC2)o1
    -0.46 | i
> C#CCCCCCCCCCCCCCCCC(=O)O
    0.26 | i
> CCC(C(=O)Nc1ccc2c(c1)OCCO2)n1nc(-c2ccccc2)c2c(c1=O)CCCC2 (stereo not given)
    -1.9 | i
> CC1(C(=O)NC2CCCCC2)Cn2c(cc3sccc32)C(=O)N1Cc1cccnc1 (stereo not given)
    -0.96 | i
> CCNc1cc(N2CCC(C)CC2)c2noc3c2c1C(=O)c1ccccc1-3
    0.45 | i
> CCOc1ccc(Oc2cc3c(cc2NC(=O)C(C)C)n(C)c(=O)c(=O)n3C)cc1
    1.5 | i
> CN1C(=O)c2ccccc2Sc2cc(-c3noc(C4CCC4)n3)ccc21
    0.2 | i
> COc1cccc(CN2C(=O)c3ccccc3Sc3ccc(C(=O)NC(C)c4ccccc4)cc32)c1 (stereo not given)
    -0.54 | i
> CN(Cc1ccccc1)C(=O)C1CCN(S(=O)(=O)c2ccc3c(c2)CCCC(=O)N3)CC1
    -0.39 | i
> CCc1ccc(COC(=O)c2nnn(-c3ccc(Br)cc3)c2C)cc1
    0.34 | i
> COc1ccc(C(=O)Nc2cnc3oc(-c4ccc(Cl)cc4)nn3c2=O)cc1OC
    -0.42 | i
> CCn1ccnc1CC1COc2ccccc2O1 (stereo not given)
    -0.36&-0.77 | i
> COC(=O)c1ccc(C2Nc3c(C)cc(C)cc3[C@H]3OCCC[C@@H]23)cc1 (stereo not given in full)
    -0.06 | i
> O=C(Nc1cnc(N2CCNCC2)c(C(=O)N2CCC(Cc3ccccc3)CC2)c1)c1ccccc1
    -1.1 | i
> Cc1nc(-c2ccc(N3CCN(C(=O)CNC(=O)c4ccccc4)CC3)cc2)no1
    -0.05 | i
> Cc1cc(=O)[nH]c(=S)[nH]1
    -0.03 | i
> Cc1ccc(-c2cc(C(=O)N3CCCCC3)[nH]n2)cc1S(=O)(=O)N1CCC(C(N)=O)CC1
    -1.1 | i
> Cc1ccc(-c2csc(Cc3nc(-c4ccc5c(c4)OCO5)no3)n2)c(C)c1
    1.8 | i
> O=C1CCn2nc(-c3ccc(Cl)cc3)cc2N1
    0.24 | i
> CCCc1nc2ccccc2n1CC(O)COc1ccc(CC)cc1 (stereo not given)
    0.95 | i

The final 3 entries of the section before are carried over, then new ones follow:
Fields: Anaer choline gr early | Anaer choline gr
> Cc1ccc(-c2csc(Cc3nc(-c4ccc5c(c4)OCO5)no3)n2)c(C)c1
    1.8 | i
> O=C1CCn2nc(-c3ccc(Cl)cc3)cc2N1
    0.24 | i
> CCCc1nc2ccccc2n1CC(O)COc1ccc(CC)cc1 (stereo not given)
    0.95 | i
> CNC(=O)c1c(-c2ccc(Cl)cc2)nc2n1CCS2(=O)=O
    0.38 | i
> O=S(=O)(Nc1cccn2cnnc12)c1ccc2c(c1)OCCO2
    -0.6 | i
> CC(=O)N1CCCSc2ccc(S(=O)(=O)NC3CCC(C)CC3)cc21 (stereo not given)
    0.72 | i
> CC(C)c1ccc(NC(=O)CN2C(=O)CC(c3ccccc3Cl)=Nc3ccccc32)cc1
    0.55 | i
> CC(Cc1ccccc1)(NC(=O)CN)c1ccccc1 (stereo not given)
    -1.3&0.32 | i
> CCCSc1nc2ccccc2n2nnnc12
    -0.73 | i
> O=C(CCCn1nc(-c2ccccc2)c2ccccc21)NCC1CCCO1 (stereo not given)
    0.41 | i
> Cc1cc(N2CCC(NC(=O)Nc3ccc(Br)cc3)CC2)n2ncnc2n1
    -0.95 | i
> CSc1nnc2n(CCC(C)C)c(=O)c3sccc3n12
    0.77 | i
> CCn1c(=O)c(SCC(=O)NC(C)C)nc2ccccc21
    -0.93 | i
> O=C(OCC1CCCO1)c1ccc2c(c1)N(Cc1cccc(F)c1)C(=O)c1ccccc1S2 (stereo not given)
    1.3 | i
> CS(=O)(=O)N1CCC(c2nnc(C(=O)Nc3ccccc3)s2)CC1
    -0.27 | i
> O=C(Nc1ccccc1C(=O)c1ccccc1)c1cnn(-c2ccc(Br)cc2)c1
    1.4 | i
> Nc1nc(SC/C=C/c2ccccc2)nc2sc3c(c12)CCCC3
    2.1 | i
> CCOc1ccc(CCN2C(=O)CCC2(C)C(=O)NCc2ccc(C)cc2)cc1 (stereo not given)
    -0.65 | i
> CCOc1c(Br)cc(C2Nc3ccc(OC)cc3[C@H]3OCCC[C@@H]23)cc1OC (stereo not given in full)
    -0.03 | i
> CCC(CC)C(=O)Nc1cc(Cl)ccc1OCc1cc(=O)n2cc(C)sc2n1
    0.35 | i
> CCC(C)NC(=O)CSc1ccc(-n2nc3c(c2C)CCC3)nn1 (stereo not given)
    -1.5 | i
> COCCCNC(=O)Cn1nc(N2CCN(c3ccccc3)CC2)ccc1=O
    -0.11 | i
> CCCc1cc(=O)[nH]c(-n2nc(C)cc2NC(=O)c2cccc(Br)c2)n1
    2 | i
> Cc1ccccc1CNC(=O)CC1CCN(C(=O)c2[nH]c(C)c(C(=O)OC(C)C)c2C)CC1
    -0.4 | i
